GALR2 ag = GALR2 receptor agonists, primary screen, cell-based. Galanin receptor type 2 (Homo sapiens), O43603. GALR2-expressing cells, agonist activation read-out. activation, %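 (tested at 5 µM)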. 140,000 compounds, 0.48% hits. AID 803, 2007;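 active = above mean plus 3 SD of all compounds, about 5% in these data, not always enough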;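 also: 0% = vehicle buffer wells and 100% = reference agonist at full effect; tested in CHO reporter cells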
Target sequence (O43603 whole entry, looked up): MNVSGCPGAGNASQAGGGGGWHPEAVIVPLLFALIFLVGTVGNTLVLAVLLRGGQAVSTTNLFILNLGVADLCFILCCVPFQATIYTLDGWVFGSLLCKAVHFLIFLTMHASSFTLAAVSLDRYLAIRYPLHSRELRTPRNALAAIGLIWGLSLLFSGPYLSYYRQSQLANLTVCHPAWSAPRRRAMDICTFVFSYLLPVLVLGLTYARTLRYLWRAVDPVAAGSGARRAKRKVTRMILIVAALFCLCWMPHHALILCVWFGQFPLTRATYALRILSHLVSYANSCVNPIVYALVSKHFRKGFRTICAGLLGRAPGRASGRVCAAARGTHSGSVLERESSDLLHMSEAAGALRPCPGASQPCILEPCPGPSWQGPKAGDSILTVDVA
HSV augment = enhancers of HSV replication in host cells, fold increase, host cell viability. HSV replication augmentation in cells. maximum fold increase. 220,000 compounds, 0.005% hits;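 active = peak rise of 1.5-fold or more in the series; inconclusive = self-fluorescent or not available for retest; tested in PC3 cells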;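 also: first round at 10 µM; read as green reporter fluorescence; hits show the peak of a series up to 25 µM; 1 = signal of infected wells without compound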
Insulin prom inh = inhibitors of insulin promoter-driven GFP, primary screen, imaging, TRM-6 cells (human fetal islet line), eGFP reporter, cell count; 130,000 compounds, 0.9% hits; inhibition, % at 2 µM; reporter expression induced with tamoxifen;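 active = inhibition above the mean plus 3 SD, with well images judged a real hit on visual review, cut at about 60% in these data, passing the limit was not always enough; inconclusive = inhibition over the cutoff but images rejected on review; inactive = inhibition not above the cutoff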
PKD1 kinase inh = inhibitors of human PKD1 kinase, biochemical, fluorescence polarization; PKD1 kinase fluorescence polarization assay; inhibition, %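 (about 10 µM by stock and volumes)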; 200,000 compounds, 0.056% hits;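 active = inhibition of 50% or more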;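 also: controls were vehicle for no effect and a reference inhibitor for full effect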
RGS16-Gao HTS = modulators of RGS16 binding to Galphao, primary screen, biochemical, human proteins, multiplexed bead flow cytometry | Regulator of G-protein signaling 16 (Homo sapiens) + Guanine nucleotide-binding protein … | 220,000 compounds, 0.38% hits | bead-based flow cytometry RGS16-Galphao binding, fluorescence; actives lie on both sides | binding response (% of control), % at 10 µM;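 active = below 25% or above 175%, edge rows of some plates excepted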;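 also: Galphao activated by GDP with aluminum fluoride before binding; 100% = wells without compound and 0% = beads without RGS; some results beyond the cut were filed as inactive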
Target sequence (O15492 whole entry, looked up): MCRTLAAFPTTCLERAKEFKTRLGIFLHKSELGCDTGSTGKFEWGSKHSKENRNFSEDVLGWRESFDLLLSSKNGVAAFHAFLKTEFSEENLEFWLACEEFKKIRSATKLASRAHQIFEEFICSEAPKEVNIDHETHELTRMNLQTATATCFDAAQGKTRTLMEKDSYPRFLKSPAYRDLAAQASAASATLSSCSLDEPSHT
Target sequence (P09471 whole entry, looked up): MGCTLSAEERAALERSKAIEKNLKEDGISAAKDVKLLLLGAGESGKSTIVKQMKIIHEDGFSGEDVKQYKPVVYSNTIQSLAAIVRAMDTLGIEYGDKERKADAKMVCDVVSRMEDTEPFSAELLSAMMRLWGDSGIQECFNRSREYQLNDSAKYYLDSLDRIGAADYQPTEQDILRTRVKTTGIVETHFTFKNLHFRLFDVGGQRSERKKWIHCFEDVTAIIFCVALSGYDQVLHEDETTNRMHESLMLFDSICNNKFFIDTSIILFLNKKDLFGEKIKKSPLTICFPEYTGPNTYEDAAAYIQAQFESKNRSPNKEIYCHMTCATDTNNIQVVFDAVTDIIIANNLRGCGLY
Insulin prom inh cell count = recorded beside Insulin prom inh, whose call it bears; normalized cell count, %; measured here: cell count, toxicity; reference of the scale not given here;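 cells exposed to compound for 48 h; stained nuclei by imaging scaled within each plate; lower means fewer cells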
HSV augment primary fold = also measured in HSV augment; calls as there; fold increase; compound at 10 µM; measured here: primary screen fold increase 10 uM; tested in PC3 cells;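 GFP signal in the first replicate; 1 = infected wells without compound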
The depositor's hits bear a star; i = inactive; ? = inconclusive; / = not tested or not shown.

SMILES	GALR2 ag	HSV augment	HSV augment primary fold	Insulin prom inh	Insulin prom inh cell count	PKD1 kinase inh	RGS16-Gao HTS
CC(C)(C)NC(=O)CSc1nc2ccc(NC(=O)CSc3nnnn3Cc3ccccc3)cc2s1	-0.4	i	1	19	126	-7	104
COc1ccc(NC(=O)CNC(=O)Cn2c(C)cc3ccccc3c2=O)cc1OC	/	i	0.81	-7	122	-7	105
Cc1ccccc1NC(=O)N1CCN(c2ncccn2)CC1	/	i	0.84	/	/	8	99
CCCCNC(=O)CN1C(=O)NC2(CCCc3ccccc32)C1=O (stereo unspecified)	-3.5	i	1	26	143	-5	92
Cn1c(Cn2nnc3ccccc32)nnc1SCC(=O)c1ccc(F)cc1	-0.7	i	1	-12	66	-1	102
COc1c(Cl)cnn(-c2ccc(Cl)c(Cl)c2)c1=O	/	i	0.75	-125	26	-7	99
COC(=O)c1nc2ccc(C)cn2c1F	-2.4	i	1.1	/	/	-4	102
Cc1ccccc1-c1noc(N)c1C#N	-1.6	i	0.9	6	63	-4	18
Cc1cccc(N2CCN(c3ccc(NC(=O)/C=C\C(=O)O)cc3)CC2)c1	/	i	1	/	/	-2	97
COc1cc(C2N(C)CCC3(OCCO3)C2(C)C)cc(OC)c1OC (stereo unspecified)	-0.2	i	0.94	36	102	-2	118
CCN(CC1COc2ccccc2O1)C(=S)Nc1ccccc1 (stereo unspecified)	-0.9	i	0.95	/	/	-1	97
N#Cc1nc(COc2ccc(Br)cc2)oc1NCCN1CCOCC1	-2.3	i	0.98	55	101	-1	121
CC(C)c1cccc(C(C)C)c1NC(=O)c1ccc(OCC(=O)NCc2ccccc2)cc1	0.8	i	0.92	14	74	-9	77
NC(=O)c1c(NC(=O)CN2C(=O)CCC2=O)sc2c1CCCCC2	-0.9	i	1.1	/	/	-11	113
CCOc1ccccc1OCCCC(=O)N(C)CC(=O)Nc1cc(C)ccc1C	/	i	1	/	/	-3	96
COc1cccc(NC(=O)c2cc(OC)c(OC)c(OC)c2Br)c1	0.1	i	0.93	0	120	-4	108
CC(C)C(OC(=O)c1nsc(Cl)c1Cl)C(=O)NC(C)(C)C (stereo unspecified)	/	i	0.78	/	/	-10	103
CCCN1CN(c2ccccc2)C(=S)N(c2ccccc2)C1	/	i	1.1	/	/	/	169
c1ccc(-c2nnnc3ccccc23)cc1	0.0	i	0.86	-13	105	0	44
Cc1ccc(C2=[N+]([O-])C3(CCCCC3=O)N(O)C2(C)C)cc1 (stereo unspecified)	-1.1	i	1	-14	113	7	96
Cc1noc(C)c1C(=O)N1CCN(c2cccc(Cl)c2)CC1	/	i	0.91	-55	80	-4	139
Cc1nn2c(-c3cccc(NC(=O)CN4CCOCC4)c3)nnc2c2ccccc12	-1.0	i	0.92	-11	128	4	/
Cc1cccn2c(CNCC3(c4ccccc4)CCCC3)c(C(=O)N3CCOCC3)nc12	/	i	0.86	-33	98	2	105
CSc1nc2nc(C)cc(-c3ccccc3)n2n1	0.1	i	0.89	-180	82	-4	94
O=[N+]([O-])c1ccc2nc(-c3ccc(Cl)cc3)[nH]c2c1	-1.9	i	0.64	7	123	-5	29
N#CCSc1nnc(C2CCCCC2)n1-c1ccccc1	-1.8	i	1.1	-21	94	-3	106
O=C(O)COc1ccccc1/C=N/NC(=O)COc1ccc(-c2ccccc2)cc1	/	i	0.92	/	/	/	88
COc1ccc(OC)c(CN2CCC(CO)(CCOc3ccccc3)CC2)c1	/	i	0.92	/	/	-2	106
COC(=O)/C=C/C(=O)N1CCN(c2cccc(Cl)c2)CC1	0.0	i	0.77	-80	153	-17	97
CCn1c(CNc2ccc(Cl)cc2)nnc1SCC(=O)NCc1ccccc1	-2.6	i	1	-106	93	-11	102
Cc1ccc(NC(=O)NC(=O)CN2C(=O)NC3(CCCCCCC3)C2=O)c(C)c1	-1.8	i	0.86	32	84	4	101
OC1C=CSc2nc3ccccc3n21 (stereo unspecified)	-0.5	i	0.94	-93	85	-6	107
Cc1cccc(NC(=O)C(=O)C2C(=O)Nc3ccccc32)c1 (stereo unspecified)	/	i	1.2	/	/	/	99
Cn1c(C(=O)N2CCc3ccccc3C2)cc2c(=O)n3ccccc3nc21	2.3	i	0.92	-79	46	-5	98
CCN1/C(=C\C(C)=O)Sc2ccc(OC)cc21	-0.9	i	0.83	-53	45	35	110
CCNc1nc(NOC)nc(OCC#N)n1	0.2	i	0.98	7	118	-4	99
O=C(O)CN1C(=O)c2cccc(Oc3ccc(Cl)cc3)c2C1=O	0.2	i	1	-2	145	-8	102
CC1(C(=O)N(CC(=O)NC2CCCC2)C2CCCC2)CC(=O)N=C2C=CC=CN21 (stereo unspecified)	-2.3	i	1.1	/	/	-1	131
S=C(Nc1ccc(Cl)cc1)NC1CC2CCCC(C1)N2C1CC1 (stereo unspecified)	1.4	i	0.64	-18	108	-5	100
Cc1ccc(C(c2nnnn2Cc2cccs2)N2CCN(Cc3ccc4c(c3)OCO4)CC2)cc1 (stereo unspecified)	-0.3	i	1	/	/	-2	96
CC(=O)O[C@H]1C(=O)[C@@]2(C)[C@H]([C@H](OC(=O)c3ccccc3)[C@]3(O)C[C@H](OC(=O)[C@H](O)C(NC(=O)c4ccccc4)c4ccccc4)C(C)=C1C3(C)C)[C@]1(OC(C)=O)CO[C@@H]1C[C@@H]2O (stereo partly specified)	/	i	0.57	/	/	/	101
CCCc1nnc(SCC(=O)N2CCOCC2)n1CCCOC	-0.7	i	0.88	0	188	-7	104
O=C(CSc1nnc(NC(=O)C2CC2)s1)Nc1ccc2c(c1)OCCO2	/	i	0.94	/	/	3	105
COc1ccc(OC2C(=O)N(CCc3ccc(OC)c(OC)c3)C2c2ccc3c(c2)OCO3)cc1 (stereo unspecified)	-0.6	?	/	7	98	-2	79
COc1cccc2[nH]c3c(N4CCC(C(N)=O)CC4)ncnc3c12	-2.3	i	0.8	14	136	8	109
COc1ccc(NC(=O)/C=C/c2ccccc2)cn1	-1.0	i	0.98	/	/	2	103
C=CCN1C(=O)c2cccc3c(Br)ccc(c23)C1=O	/	?	/	-69	129	0	99
CNc1nnc(-c2ccc(N(C)C)cc2)s1	-0.1	i	1.1	20	112	1	32

Reformatted field by field: entries from further up
SMILES: COc1cccc2[nH]c3c(N4CCC(C(N)=O)CC4)ncnc3c12
  GALR2 ag: -2.3	HSV augment: i	HSV augment primary fold: 0.8	Insulin prom inh: 14	Insulin prom inh cell count: 136	PKD1 kinase inh: 8	RGS16-Gao HTS: 109

SMILES: COc1ccc(NC(=O)/C=C/c2ccccc2)cn1
  GALR2 ag: -1.0	HSV augment: i	HSV augment primary fold: 0.98	Insulin prom inh: /	Insulin prom inh cell count: /	PKD1 kinase inh: 2	RGS16-Gao HTS: 103

SMILES: C=CCN1C(=O)c2cccc3c(Br)ccc(c23)C1=O
  GALR2 ag: /	HSV augment: ?	HSV augment primary fold: /	Insulin prom inh: -69	Insulin prom inh cell count: 129	PKD1 kinase inh: 0	RGS16-Gao HTS: 99

Ordered by the number under HSV augment primary fold (highest first): 3 from the list above.
SMILES | GALR2 ag | HSV augment primary fold | PKD1 kinase inh | RGS16-Gao HTS
Cc1ccc(C(c2nnnn2Cc2cccs2)N2CCN(Cc3ccc4c(c3)OCO4)CC2)cc1 (stereo unspecified) | -0.3 | 1 | -2 | 96
CCCc1nnc(SCC(=O)N2CCOCC2)n1CCCOC | -0.7 | 0.88 | -7 | 104
COc1cccc2[nH]c3c(N4CCC(C(N)=O)CC4)ncnc3c12 | -2.3 | 0.8 | 8 | 109

Next compounds
SMILES	GALR2 ag	HSV augment	HSV augment primary fold	Insulin prom inh	Insulin prom inh cell count	PKD1 kinase inh	RGS16-Gao HTS
CN1/C(=C\C(=O)COC(=O)c2ccc(O)cc2)C(C)(C)c2ccccc21	/	i	0.89	/	/	/	94
COc1cc(C2CC(=O)Nc3c2c(=O)nc2c(C)cccn32)cc(OC)c1OC (stereo unspecified)	/	i	1	0	86	0	101
Cc1ccc2cc(C#N)c(SCC(=O)N3CCCC3)nc2c1	/	i	0.99	/	/	/	108
O=C(/C=C/c1cccnc1)c1ccc(NC(=O)c2cccc(Br)c2)cc1	-2.0	i	1.1	-29	114	-9	101
Cc1cccc(C(=O)NCCC(=O)Nc2nc(C)c(Cc3ccc4c(c3)OCO4)s2)c1	-1.7	i	0.93	32	103	2	92
O=C(CSc1ccsc1[N+](=O)[O-])NCc1ccccc1	/	i	0.95	/	/	-1	101
COC(=O)C1=C(C)N(C(C)C)C(=O)C1(NC(C)=O)C(F)(F)F (stereo unspecified)	0.8	i	1.1	-14	81	-1	98
CCOc1ccc(NC(=O)c2sccc2-n2cccc2)cc1	/	i	0.97	/	/	-3	94
COC(=O)CSc1nc2c(c(-c3ccc(C)o3)c1C#N)CCCC2	-0.3	i	0.9	/	/	4	97
COC(=O)C1C(=O)OC(C)(C)C1C(C)C(=O)c1ccccc1 (stereo unspecified)	-1.2	i	0.98	-10	51	1	99
COc1cc2c(cc1OC)C(C(=O)N1CCOCC1)C(c1cccs1)N(C)C2=O (stereo unspecified)	-1.4	i	0.79	-114	119	-9	100
Cc1ccc(N(C(=O)Cc2cccs2)C(C(=O)NC2CCCCC2)c2ccccn2)cc1C (stereo unspecified)	-0.8	i	0.84	-81	75	-5	108
Oc1ccc(N2CCN(C(c3ccncc3)c3nnnn3C3CCCC3)CC2)cc1 (stereo unspecified)	-0.5	i	0.8	6	45	0	93
COc1ccccc1NC(=O)COC(=O)C1CC1	/	i	0.95	/	/	1	99
N#Cc1c(SCC(=O)OCc2ccccc2)nsc1SCC(=O)OCc1ccccc1	-1.2	i	0.74	14	69	-1	103
COc1ccc(NC(=O)N2Cc3ccccc3CC2C(=O)NC(C)(C)C)cc1 (stereo unspecified)	-1.0	i	1.2	30	50	11	98
CC(C)N(C(=O)c1sc2cc([N+](=O)[O-])ccc2c1Cl)C(C)C	-2.6	i	0.86	60	99	-2	114
CCS(=O)(=O)c1ccc(-c2csc(-c3ccc(Cl)cc3)n2)c(Cl)c1Cl	-0.8	i	0.94	48	142	14	102
Cn1c(SCC(=O)OC2CCCCC2)nnc1-c1ccc(S(=O)(=O)N2CCCC2)cc1	0.1	i	0.89	-5	136	-10	94
Cc1cc(CNC(=O)Nc2ccc3c(c2)OCO3)nn1C	-1.4	i	0.93	32	118	0	91
CC1CCN(CCCNC(=O)CN2CCN(Cc3ccc(Cl)cc3)C2=O)CC1	1.3	/	/	-100	84	-8	86
COCCN1C(=O)N[C@@H](CCc2ccccc2)[C@H](C(C)=O)[C@H]1C	/	i	1.1	/	/	/	97
O/N=C\c1ccc(-c2ccccc2)o1	-1.7	i	0.91	33	98	-9	107
CCCCNC(=O)C1(c2ccc(OC)cc2)CCOCC1	0.5	i	0.92	56	90	-6	103
Cc1ccc(C(=O)OC(C(=O)Nc2ccc(Cl)cc2C(F)(F)F)c2ccccc2)cc1 (stereo unspecified)	-1.6	i	0.98	34	138	-16	102
O=C(C1=C[C@@H](c2ccccc2)C[C@@H](OCCCCO)O1)N1CCOCC1	/	i	0.84	/	/	0	94
O=C(Nc1ccccc1[N+](=O)[O-])C1=C(O)CCn2c1nc1ccccc12	-0.9	i	0.9	-61	127	-6	124
Cc1sc2nc(CSc3ccc([N+](=O)[O-])c(C(F)(F)F)c3)[nH]c(=O)c2c1C	0.1	i	1.1	-30	134	-5	102
NC1=NC(c2ccccc2)N=C(Nc2ccccc2)N1 (stereo unspecified)	/	i	0.84	/	/	/	-30*
CCN(Cc1cc2ccccc2[nH]c1=O)S(=O)(=O)c1ccccc1	-1.2	i	0.87	-9	46	0	100
COc1ccc(C(=O)NCCC2=CCCCC2)cc1[N+](=O)[O-]	/	i	1	/	/	-7	103
O=C(Nc1ccc(S(=O)(=O)Nc2nccs2)cc1)c1cc(-c2ccccn2)nc2ccccc12	/	i	0.94	/	/	-3	99
O=C(Nc1ccccc1)c1cccnc1N1CCOCC1	-1.2	i	0.95	/	/	-13	98
COc1cccc(/C=C/C(=O)Nc2ccc(N3CCOCC3)cc2)c1OC	/	i	0.65	/	/	/	103
COc1ccccc1NS(=O)(=O)c1cccc(C(=O)OCC(=O)Nc2cc(C)on2)c1	-3.6	i	0.97	-46	108	3	102
O=C(N/N=C/c1ccc2ncccc2c1)c1cc(-c2cccs2)nc2ccccc12	/	i	0.87	/	/	/	97

Source: PubChem BioAssay
